# Bfl-1 A1 inh: inhibitors of the anti-apoptotic protein A1, read as caspase activation; MEF A1-2A-BIM cells, Caspase-Glo 3/7 luminescence, 3 h; percent of clofoctol response, vehicle zero; caspase activation, % (concentration not given with the values); actives 0.066% (n = 330,000); AID 2462;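 active means over half of replicate activation scores above 10%, or exactly half above 10 with the replicate mean above 10; inconclusive means replicate mean below 10 yet half the replicates above 10; inactive means over half of replicates below 10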;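 further: wells of about 30 µL received 50 nL stock; many hits fall short of the cut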
# LANA-H2A inh: blocks KSHV LANA binding to histone H2A/H2B; actives 0.6% (n = 320,000); inhibition, % (test concentration not listed); cell-free LANA-H2A/H2B peptide, fluorescence polarization; in the data active means inhibition mostly above about 10%, no sharp cut-off; inactive means mostly below about 6.7%;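 further: stock transfer was 7.5 nL into about 10 µL; 0% = median of vehicle wells and 100% = median of positive control wells; one replicate is shown; the record names a cut of 25% in any replicate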
# Vif A3G: inhibitors of Vif binding to APOBEC3G peptide, primary screen, biochemical, TR-FRET, GST-Vif 1-94, biotin-A3G peptide, dose response retest (AID 1117319); TR-FRET GST-Vif / biotin-A3G peptide binding; higher % means a stronger effect; test concentration not given here; strong numbers were not always called active; inhibition, %, or IC50 in µM where a hit was titrated; actives 0.57% (n = 260,000);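 active means above the screen mean plus three standard deviations and confirmed in dose response; inconclusive means results disagree or hit not tested in dose response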;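 further: Vif residues 1-94 fused to GST binding biotinylated APOBEC3G peptide 110-148; 0% = full assay without inhibitor and 100% = GST in place of GST-Vif; retest series ran down from 100 µM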
# Ecoli growth: inhibitors of Escherichia coli growth; OD600 absorbance (concentration not given with the values); actives 0.21% (n = 330,000); AID 1053175; OD600, 23 h; active compounds read low;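 active means OD600 absorbance below the run mean of sample wells minus 3.6 SD, in any replicate, cut at about 0.56 in these data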;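 further: stock transfer was 300 nL into about 60 µL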
# Beta2AR agonist: human beta-2 adrenergic receptor agonism by FAP. response, % (no concentration beside the values). P07550. Am2.2-beta2AR cells, FAP receptor internalization, flow cytometry; reference of the scale not given here. actives 0.43% (n = 340,000);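 active means response above a set limit, near 3 SD of response in nonfluorescent compounds, cut at about 42% in these data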;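 further: stock transfer was 100 nL into about 11 µL; a reference agonist was the positive control; negative values mostly stem from fluorescent compounds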
# Target sequence (P07550 whole entry, looked up): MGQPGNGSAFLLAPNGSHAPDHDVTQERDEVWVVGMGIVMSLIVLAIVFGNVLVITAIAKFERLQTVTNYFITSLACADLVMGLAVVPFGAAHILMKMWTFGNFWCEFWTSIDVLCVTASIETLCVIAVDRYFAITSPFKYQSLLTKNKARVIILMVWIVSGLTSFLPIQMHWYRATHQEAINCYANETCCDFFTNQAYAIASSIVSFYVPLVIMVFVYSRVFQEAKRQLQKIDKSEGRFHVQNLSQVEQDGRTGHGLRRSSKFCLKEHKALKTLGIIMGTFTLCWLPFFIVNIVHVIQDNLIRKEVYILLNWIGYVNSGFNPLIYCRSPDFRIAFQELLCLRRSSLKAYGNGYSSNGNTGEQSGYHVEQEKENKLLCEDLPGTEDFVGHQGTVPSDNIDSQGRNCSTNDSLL
# HNF4A DNA FP: change in binding of human HNF4 alpha to DNA | P41235 | HNF4a-FITC DNA binding, fluorescence polarization, 1 h | activity change, % at 10 µM | actives 0.3% (n = 360,000) | AID 1224865; in the data active means activity change above about 30%, passing the limit was not always enough;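 further: controls were the assay level and a saturating level of protein; the project sought stronger binding though the title names inhibitors; some compounds called inactive have numbers as strong as hits; positive values seem to mean higher polarization but the record does not say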
# Target sequence (P41235 whole entry, looked up): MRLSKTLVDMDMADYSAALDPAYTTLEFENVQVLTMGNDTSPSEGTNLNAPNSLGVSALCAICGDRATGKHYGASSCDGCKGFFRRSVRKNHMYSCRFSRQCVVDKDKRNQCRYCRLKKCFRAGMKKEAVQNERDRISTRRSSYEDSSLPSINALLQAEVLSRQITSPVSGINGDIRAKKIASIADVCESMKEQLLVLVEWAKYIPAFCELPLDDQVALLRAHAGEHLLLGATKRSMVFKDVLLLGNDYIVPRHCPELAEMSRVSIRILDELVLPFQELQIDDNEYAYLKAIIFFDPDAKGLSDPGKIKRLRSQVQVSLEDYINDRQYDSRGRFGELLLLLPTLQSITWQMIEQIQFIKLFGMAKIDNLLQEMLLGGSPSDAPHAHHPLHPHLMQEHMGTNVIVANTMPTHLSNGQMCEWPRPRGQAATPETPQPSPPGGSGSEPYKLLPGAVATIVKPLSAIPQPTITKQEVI
# UCH37 DUB inh: human UCH37 deubiquitinating enzyme inhibition. Q9Y5K5. purified proteasome/UCH37, Ub-AMC cleavage fluorescence. actives 0.33% (n = 330,000). inhibition, % (concentration not given with the values);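 active means mean of two replicates above 20%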;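 further: 0% = compound-free wells with enzyme and 100% = wells lacking proteasome; stock transfer was 100 nL into about 20 µL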
#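 system = Proteasome-associated human UCH37 deubiquitinase | amount = 0.15 nM proteasome as dispensed | medium = pH 7.4 Tris-HCl (50 mM) with ovalbumin, ATP-MgCl2, DTT | incubation = 30 min preincubation with enzyme, 25 min cleavage at room temperature | detection = AMC fluorescence 355/460 nm | read-out basis = percent inhibition | controls = no-proteasome and no-compound wells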
# * marks the source's active call; other numbers are inactive results; ? = inconclusive; . = not tested or not shown; & = joins results of further samples.
smiles,Bfl-1 A1 inh,HNF4A DNA FP,Beta2AR agonist,Ecoli growth,UCH37 DUB inh,Vif A3G,LANA-H2A inh
Cc1cc(Cl)c2oc(C(=O)NC3CCC(O)CC3)c(C)c2c1 (stereo not drawn),-1.1,1.4,-1,0.65,4.9,.,-0.8
COc1ccc(C(=O)COc2ccccc2C(=O)Nc2ccccc2)cc1,-0.6,-1.0,-3,0.72,1.0,-7%,9.1
COc1cc2cc(Oc3ccc4ccc(=O)oc4c3)c(=O)oc2cc1OC(=O)/C=C/c1ccccc1,0.1,-2.2,4,.,-2.7,-6%,-6.0
Cc1cccc(NS(=O)(=O)c2cc(OCC(N)=O)c(C)cc2Cl)c1,0.5,2.3,15,0.69,1.3,.,-3.6
CCn1cc(/C=N/NC(=O)COc2cccc3cccnc23)c2ccccc21,0.3,5.2,11,.,.,-4%,-5.9
CN1CCN(CCCNC(=O)c2ccc(/C=C3/Sc4ccccc4N(Cc4cccc(Cl)c4)C3=O)cc2)CC1,.,9.1,24,0.63,-15,2%,.
O=C(Cc1c(F)cccc1Cl)Nc1ccncc1,0.0,1.9,-9,0.64,-1.9,0%,-4.0
Cc1cccc(C(=O)N[C@H](C(=O)Nc2ncc(C)s2)C(C)C)c1,0.1,0.5,3,0.71,3.3,-6%,-2.5
COc1cc(C[C@@H](CO)[C@H](CO)Cc2ccc(O)c(OC)c2)ccc1O,0.0,.,.,.,0.3,.,-2.9
COC(=O)c1ccc(C(=O)OCCCc2nc3ccc(N)cc3[nH]2)cc1,-0.7,-0.9,-1,0.74,2.1,0%,1.9
CC1CC(C)CN(C(=O)c2ccc(N3CC4CC(C3)c3cccc(=O)n3C4)c([N+](=O)[O-])c2)C1 (stereo not drawn),-0.2,4.1,-16,0.68,0.9,.,-1.8
COc1ccc(-n2c(CNC(=O)COc3ccc(Cl)cc3)n[nH]c2=S)cc1,-0.4,3.8,-2,0.69,2.5,5%,-5.1
CSc1nc(Oc2ccc(=O)[nH]n2)nc(N(C)C)n1,-1.0,-4.2,-5,0.72,4.4,-7%,-0.3
O=c1c(C/C=C/c2ccccc2)c(O)ccn1Cc1cccc(Cl)c1,-0.6,2.5,2,0.69,-0.6,-2%,-3.3
CCOC(=O)N1CCC(c2[nH][nH]c(=O)c2C)CC1,0.9,-0.3,-144,0.71,2.2,3%,-1.8
O=C(N/N=C/c1cc([N+](=O)[O-])ccc1O)c1cccc2ccccc12,0.7,0.5,6,.,.,.,-4.8
COCCNC(=O)Nc1ccc2c(c1)N(C)C(=O)c1ccccc1S2,0.2,-1.0,-1,0.7,3.6,-5%,2.8
CCN(CC(=O)Nc1c(C(=O)OC)[nH]c2ccc(Cl)cc12)c1ccc2c(c1)OCO2,-0.9,-8.3,15,0.74,1.5,1%,-1.5
CCOC(=O)N1CCN(C(=O)c2ccc3c(c2)N(Cc2ccc(C)cc2)CCS3)CC1,-0.3,-4.8,4,0.68,-107,-9%,-2.2
Cc1ccc(C)c(NC(=O)c2cc(=O)c3ccccc3o2)c1,-0.3,-3.1,-10,0.67,5.3,-6%,-4.8
O=[N+]([O-])c1ccccc1/C=N/NC1=NCCN1,0.5,1.2,-3,.,.,.,-3.7
Cc1ccc(S(=O)(=O)Nc2ccnc(-c3cccnc3)n2)cc1,-0.3,8.3,1,0.67,4.1,-2%,-2.4
Cc1ccccc1OCCn1c(S(=O)(=O)O)nc2c(N)ncnc21,0.4,8.3,-5,0.68,3.3,-4%,1.6
N#C/C(=C/c1ccncc1)c1nc2ccccc2c(=O)[nH]1,0.3,4.2,14,0.67,-1.5,?,6.6
O=C(NNC(=S)NCc1ccccc1)c1cccnc1,0.0,2.7,-6,0.73,2.3,0%,-2.8
O=C(COC(=O)Cc1ccccc1F)Nc1ccc(F)cc1F,0.0,-2.6,2,0.71,2.7,-4%,-7.3
CC1CCCN(S(=O)(=O)c2cnc[nH]2)C1 (stereo not drawn),0.8,-1.1,-15,0.72,1.9,.,-2.1
CCSc1nnc(NC(=O)C2CCCCC2C(=O)OCC(F)(F)C(F)F)s1 (stereo not drawn),-0.3,0.5,-2,0.68,-1.2,0%&1%,2.5
O=C(NCC1CCC(C(=O)O)CC1)OCc1ccccc1 (stereo not drawn),2.4,-2.1,-7,0.65,3.4,-10%,-7.0
O=C(Nc1ncc(Cc2cccc(Cl)c2)s1)c1cccs1,-0.8,-3.3,12,0.76,-2.4,9%,-2.0
CCc1ccc(C(=O)NNc2ccc(F)cc2F)cc1,0.2,0.8,2,0.67,5.1,3%,-8.3
NC(Cc1ccc(O)cc1)c1cn([C@@H](CCC(=O)O)C(=O)N2CCNCC2)nn1 (stereo partly drawn),0.0,-5.8,-4,.,1.7,8%,2.2
CC(=O)N1CCN(c2ccc(NC(=O)c3ccc4c(c3)OCCO4)cc2Cl)CC1,1.1,-4.2,1,0.69,0.3,?,-9.9
Cc1ccc(NC(=O)c2nc[nH]c2C(=O)NCCN(CCNC(=O)c2[nH]cnc2C(=O)Nc2ccc(C)cc2)CCNC(=O)c2[nH]cnc2C(=O)Nc2ccc(C)cc2)cc1,-0.9,-0.3,-2,0.64,-60,.,3.6
CC(C)[C@H](NC(=O)c1ccccc1F)C(=O)OCC(=O)Nc1sccc1C(N)=O,1.7,3.8,1,0.69,5.8,.,8.2
O=C(c1cccc(N2C(=O)C3C4C=CC(C4)C3C2=O)c1)N1CCCCCC1 (stereo not drawn),-0.5,3.1,-2,0.79,-0.7,-1%,-1.7
O=C(NCc1ccco1)c1ccc(Cn2cc([N+](=O)[O-])cn2)o1,-0.2,6.8,-2,0.69,2.2,11%,-1.1
Cc1cc(-c2nnc(SCC(=O)Nc3ccc(Br)cc3F)n2N)n[nH]1,0.7,0.0,-2,0.68,5.0,.,4.0
CCCN1CCN(CC(=O)Nc2nnc(CC)s2)CC1,-0.2,-5.3,4,0.66,4.2,.,-5.9
O=C(O)C1C2CCC(O2)C1C(=O)Nc1ccc(F)c(Cl)c1 (stereo not drawn),0.1,2.5,-5,0.68,-1.9,.,-2.4
CC(=O)Oc1ccc(N(C(C)=O)S(=O)(=O)c2ccc3ccccc3c2)cc1Br,0.4,2.0,12,0.62,1.0,-13%,-4.9
CCCCOC(=O)/C=C\C(=O)OCCCC,0.1,3.4,-11,0.74,5.0,.,-3.6
CCN(CC)S(=O)(=O)c1cccc(-c2nnc(SCC(N)=O)n2C)c1,1.4,-2.0,8,0.68,0.0,0%,-2.7
CCS(=O)(=O)c1ccc(N)cc1,0.5,5.1,-7,0.69,3.3,4%,1.3
CCN1CCN(CC(=O)NC2CCCCC2)C(=O)C1=O,0.0,1.2,7,0.71,5.8,8%,-0.8
CCOCc1c(C(=O)Nc2ccccc2N2CCN(C)CC2)oc2ccccc12,.,3.2,8,0.68,0.8,2%,.
O=C(O)c1ccc(Nc2ccc(Cl)c(Cl)c2)c([N+](=O)[O-])c1,0.8,3.0,-1,0.65,6.5,-3%,-1.8
COc1ccc(-c2cc(-c3ccccc3)n[nH]2)c(O)c1,-11,-1.2,-4,0.64,3.5,10%,-6.5
Cc1ccc(C(=O)NNC(=O)CSc2nnc(-c3ccncc3)n2-c2ccc(C)cc2)cc1,0.1,-2.2,3,.,.,2%,-8.0
CN(Cc1ccccn1)C(=O)CC1C(=O)NCCN1Cc1cccc(Oc2ccccc2)c1 (stereo not drawn),-0.3,1.9,-3,0.7,4.4,.,-5.4
Cc1ccc(Nc2nnc(-c3ccc4c(c3)OCO4)o2)c(C)c1,-2.0,-4.3,2,0.68,-2.9,-7%,0.5
COc1ccc(N(CC(=O)Nc2ccc(C)c(C)c2)C2=NC3CS(=O)(=O)CC3S2)cc1 (stereo not drawn),-0.3,2.4,-8,0.71,1.9,.,9.9
CC(=O)N1CCN(CC(C)(C)NS(=O)(=O)c2ccc(C)cc2)CC1,0.9,0.0,1,0.64,0.6,.,1.1
COc1ccc(CCNC(=O)CCC(=O)Nc2ccccc2[N+](=O)[O-])cc1OC,-1.3,-3.3,-5,0.63,4.2,7%,5.8
COc1cc(OC)cc(C(=O)NCC(=O)OCC(=O)Nc2cc(S(C)(=O)=O)ccc2Cl)c1,1.6,3.5,-2,0.69,-0.3,-3%,1.5
CCc1ccc(O)c(CNCCNCc2cc(CC)ccc2O)c1,1.4,-3.9,27,0.55,0.7,.,4.1
Cc1cccc[n+]1CC(=O)c1ccc2c(c1)OCCO2,0.5,-1.9,0,0.74,4.1,7%,2.8
CCc1nc(SCC(=O)Nc2c(C)nn(C)c2C)c2cnn(-c3ccccc3)c2n1,.,.,.,0.74,1.0,2%,.
COc1cccc(CNC(=O)CCCc2cn(C)c3ccccc23)c1,-0.4,-1.4,0,0.66,2.0,-12%,1.6
NC(=O)c1nsc(C(=O)N(c2ccccc2)C(C(=O)NCC2CCCO2)c2ccc(F)cc2)c1N (stereo not drawn),0.3,-0.8,3,0.7,-90,.,2.0

# Other records follow.
smiles,Bfl-1 A1 inh,HNF4A DNA FP,Beta2AR agonist,Ecoli growth,UCH37 DUB inh,Vif A3G,LANA-H2A inh
O=C(c1cccs1)n1nc(-c2cccnc2)nc1NCc1ccco1,.,2.0,-8,0.67,0.8,.,.
Cc1nnc(SCC(=O)N2CCN(c3ccccc3F)CC2)n1C1CC1,.,6.7,1,0.69,4.0,-7%,.
C=CC[C@@H](CC(=O)N(CCO)Cc1ccccc1)C(=O)NC[C@H](OC(=O)[C@@H](CC=C)Cc1ccc(F)cc1)c1ccccc1,-2.1,-4.1,19,.,2.7,.,7.5
COc1ccc(-c2oc3ncn(Cc4ccco4)c(=N)c3c2-c2ccc(OC)cc2)cc1,0.2,-1.5,1,0.8,-6.3,-7%,0.2
N#Cc1nc(COc2ccccc2F)oc1NCCc1ccccc1,2.0,-3.5,14,0.7,6.0,0%,-0.9
COc1ccc(CNC(=O)C[C@H]2C(=O)N(CCc3ccccc3)C[C@@H]2Cc2ccccc2)cc1,1.6,-3.0,2,.,2.5,.,-2.0
CN(C)S(=O)(=O)NCCNc1ccc(C(F)(F)F)cc1[N+](=O)[O-],-0.3,7.1,-10,0.68,6.7,3%,5.4
CC(=O)Nc1cccc(C(=O)OC2CCOC2=O)c1 (stereo not drawn),-0.5,-1.6,6,0.73,3.7,.,-4.7
CN1CCN(c2ccc(S(=O)(=O)N3CCCCC3)cc2NC(=O)Cc2ccc(Cl)cc2)CC1,-0.4,-1.2,3,0.7,-0.4,.,.
O=C(CN(C1CCCCC1)S(=O)(=O)c1ccc(F)cc1)Nc1ccc2c(c1)OCO2,0.0,2.7,3,0.74,1.2,14%,-0.8
S=c1[nH]nc(Cn2cnc3ccccc32)n1-c1ccccc1,0.7,2.2,0,0.72,0.8,4%,2.7
O=C(O)CCC(=O)NNC(=O)CCC(=O)Nc1ccccc1,0.1,4.0,-7,0.71,4.0,32%,9.5
COC(=O)c1sc(S(=O)(=O)N2CCC(C(=O)O)CC2)c(C(=O)OC)c1C,0.4,4.2,-3,0.65,0.6,9%,6.0
N#CC(C#N)=CN=c1ccn(Cc2ccc(Cl)cc2Cl)cc1,?,3.1,-1,0.71,-18,.,-3.1

# Bioassay records (PubChem BioAssay)
